gsp antagonist – gsp mutant antagonism | gsp-mutant cells, cAMP HTRF, 30 min; control for the full effect not named in the record | Potency, µM (highest dose often 76.9 µM), for the others: at the top dose activity change, negative = inhibition, actives largely listed as inhibitors | 340,000 compounds, 0.4% hits; active = falling curve of any shape with a large fitted effect; inconclusive = falling curve, mostly with a smaller effect; inactive = flat or rising curve; cell line not stated here;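 further: intracellular cAMP measured with PDE inhibitor Ro 20-1724 present during compound exposure; potency means the concentration at half of the fitted maximal effect; on the % scale 0 is the no-effect control and ±100 the full control effect; nearly all actives have a fitted effect of over 65% in size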
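HTRF cAMP read-out (cAMP-d2 plus anti-cAMP antibody-K in lysis buffer, 30 min RT). Before lysis, cells are exposed to compounds with […] for 30 min at 37C in DPBS containing Ca/Mg, BSA and Tween 20.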
ClpP mod – qHTS Assay for Activators of ClpP. ATP-dependent Clp protease proteolytic subunit (Bacillus subtilis (strain 168)), P80244. purified B. subtilis ClpP, FRET peptide cleavage, 20 min. Potency, µM (series often up to 57.5 µM), for the others: top-dose activity change, negative = active. 340,000 compounds, 1.9% hits; active = well fitted falling curve with a large enough effect; inconclusive = small, poorly fitted or top-dose-only effect; inactive = no such curve, though single readings can be large or run the other way; further: potency means the concentration at half of the fitted maximal effect; the source files actives as falling curves though it sought activators and does not explain the sign; nearly all actives have a fitted effect of over 65% in size; many hits overshoot -100%
Target sequence (P80244 whole entry, looked up): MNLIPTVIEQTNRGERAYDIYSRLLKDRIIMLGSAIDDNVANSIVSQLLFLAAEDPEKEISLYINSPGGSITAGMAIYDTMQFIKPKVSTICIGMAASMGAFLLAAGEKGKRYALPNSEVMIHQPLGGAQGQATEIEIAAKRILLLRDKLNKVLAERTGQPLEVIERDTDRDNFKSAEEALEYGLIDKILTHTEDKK
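Purified B. subtilis ClpP, 10 microg/mL final in Tris/HCl pH8 with KCl, BSA, glycerol and Tween-20, cleaved an Abz/nitrotyrosine-quenched decapeptide. Fluorescence (ex 320, em 430) was read at 0 and 20 min at room temperature. Delta was normalized to 5.8 microM ADEP and DMSO/no-enzyme controls.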
gsp agonist – gsp mutant agonism | gsp mutant cells, cAMP HTRF, 30 min; control for the full effect not named in the record | Potency, µM (titrated, usually from 76.9 µM), for the others: at the top dose activation (cAMP increase), usual class: activators | 340,000 compounds, 0.13% hits | AID 624287; active = well fitted activation curve with a large enough effect; inconclusive = small, poorly fitted or top-dose-only effect, or another doubt; inactive = no such curve, though single readings can be large or run the other way; cell line not stated here;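 further: phosphodiesterase inhibitor Ro 20-1724 added with compounds to block cAMP breakdown; potency means the concentration at half of the fitted maximal effect; nearly all actives have a fitted effect of over 60% in size; about a fifth of the inactives were tested at one dose only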
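Cells in DMEM/10% FBS with G418 were pretreated with compounds in DMSO plus […] (300 uM stock) for 30 min at 37C. cAMP was measured by HTRF (cAMP-d2 plus anti-cAMP antibody-K) after 30 min at room temperature.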
Menin-MLL FL inh – displaces fluorescein MLL peptide from human menin; Fluorescence polarization, fluorescein-MLL peptide displacement from menin; FP activity change, % at 61.4 µM; 290,000 tested, under 10 active; AID 1766; inconclusive = falling polarisation curve, or a change in total fluorescence; inactive = total fluorescence flat and polarisation flat or rising; no compound was filed as active; the % refers to the polarisation; negative = inhibition;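 further: % of control where 0% means no effect; inhibitors lower the polarisation; unlabelled MLL peptide was the positive control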
TRPML1 inh – human mucolipin-1 channel inhibition; Q9GZU1; TRPML1-inducible cells, Ca2+ dye fluorescence, FDSS; hits give low values; inhibition of EC80 agonist-evoked calcium signal; activity change, negative = inhibition, % (no concentration beside the values); 390,000 compounds, 0.02% hits; AID 624415; in the data active means activity change below about -50%; inconclusive means about -30% to -50%; inactive means above about -30%;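 further: stimulus is agonist 54-4 at its EC80 concentration; on the % scale 0 is the no-effect control and ±100 the full control effect; compound concentration not given in the record; the text of the record puts the active cut at -80%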
Target sequence (Q9GZU1 whole entry, looked up): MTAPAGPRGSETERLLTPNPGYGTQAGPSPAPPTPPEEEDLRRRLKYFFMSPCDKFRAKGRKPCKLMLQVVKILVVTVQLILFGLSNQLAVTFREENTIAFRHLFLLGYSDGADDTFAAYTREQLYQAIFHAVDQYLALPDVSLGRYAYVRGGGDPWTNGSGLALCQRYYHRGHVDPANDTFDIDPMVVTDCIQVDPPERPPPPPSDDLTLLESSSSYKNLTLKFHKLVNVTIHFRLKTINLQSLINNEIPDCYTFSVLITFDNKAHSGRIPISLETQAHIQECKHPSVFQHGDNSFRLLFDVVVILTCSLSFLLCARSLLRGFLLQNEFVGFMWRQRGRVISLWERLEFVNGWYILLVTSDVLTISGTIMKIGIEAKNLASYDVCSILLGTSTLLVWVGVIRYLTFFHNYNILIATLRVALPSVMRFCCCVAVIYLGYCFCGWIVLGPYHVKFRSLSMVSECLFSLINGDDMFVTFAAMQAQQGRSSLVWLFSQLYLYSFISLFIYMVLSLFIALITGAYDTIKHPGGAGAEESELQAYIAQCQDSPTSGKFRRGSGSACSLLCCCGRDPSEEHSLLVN
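TRPML1-DL cells, Tet-induced overnight (~16 h, 37 °C) at 1,500 cells/well, were loaded with Ca8 no-wash dye plus quencher for 45-90 min at room temperature. Compounds were pinned during FDSS kinetic reading; agonist 54-4 at EC80 (4 uM final) then added.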
TRPML1 agonist – agonists of human TRPML1 channel. Q9GZU1. TRPML1-expressing cells, Ca2+ dye fluorescence, FDSS; host cell line not named in the record; reference of the full effect not given here. activation, % (no concentration beside the values). 410,000 compounds, 0.12% hits; in the data active = activation above about 50%; inconclusive = about 30% to 50%; inactive = below about 30%; further: 0% is about no effect; the text of the record puts the active cut at 80%
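In this qHTS format, compounds were pin-transferred onto Ca8-dye-loaded TRPML1-DL cells induced with Tet overnight, and intracellular Ca2+ fluorescence was recorded kinetically for 110 s after a 10 s baseline. A subsequent 4uM final 54-4 (EC80) addition followed by a second 110 s read served as the antagonist phase.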
Active calls of the source: *; u = inconclusive; x = no result given; & = joins results of further samples; [ ] = another dose, or the depositor's remark. Random draw from the library. Share with any hit: about 2.1%.

SMILES	gsp antagonist	ClpP mod	gsp agonist	Menin-MLL FL inh	TRPML1 inh	TRPML1 agonist
N#CCCN1CCN(Cc2cc(-c3ccccc3)ccc2O)CC1	8%	-7.7%	u	0.4	28	-0.1
CC1CCCCC1NC(=O)/C(C#N)=C/c1ccc(OCC(N)=O)cc1 (centres undefined)	-9%	1.3%	3%[15.4 µM]	10	10	0.8
Cc1ccc(CCNC(=O)C2CCN(S(=O)(=O)N3CCOCC3)CC2)cc1	-7%	1.6%	8%	x	-18	-0.9
CN(CC(=O)Nc1ccc(N2CCOCC2)cc1)C(=O)CCc1cc(C(C)(C)C)c(O)c(C(C)(C)C)c1	-13%	0.8%	3%	x	3	0.2
CC1CC1C(=O)OCC(=O)NC(=O)NCc1ccco1 (centres undefined)	2%	-1.2%	-46%[inhibitor]	-1.3	-17	-0.5
CCOC(=O)c1c(-c2cccs2)csc1NC(=O)CCCC(=O)O	-12%	-2.8%	38%	1.1	8	0.9
COc1ccc(/C=C(\NC(=O)c2ccc([N+](=O)[O-])cc2)C(=O)NCCCn2ccnc2)cc1	9%	1.2%	0%[15.4 µM]	-1.3	11	-1.0
CC1=C(C(=O)OCC(Cl)(Cl)Cl)N2C(=O)C(NC(=O)Cc3ccccc3)C2SC1 (centres undefined)	x	x	-12%[15.4 µM]	-1.2	-11	2.0
COc1cc(O)c(C(CCN2CCN(c3ccccc3)CC2)c2ccc(N(C)C)cc2)c(OC)c1 (centres undefined)	5%	-4.4%	x	-8.2&4.4	-21&18	2.0&1.0
COCCNC(=O)/C(C#N)=C/c1c(N2CCN(c3ccccc3)CC2)nc2ccccn2c1=O	-10%	-11%	u	-1.9	-11	1.6
CC1COc2ccccc2N1S(=O)(=O)c1cc(Cl)ccc1Cl (centres undefined)	4%	x	-40%[inhibitor]	4.6	1	1.1
CC(=O)Nc1c(C(=O)N2CCN(c3ccccn3)CC2)cnn1-c1ccc(C)cc1	8%	-19%	-11%	-1.0	3	0.3
CCOC(=O)C(NC(=O)c1ccccc1Cl)(Nc1sc2c(c1C(N)=O)CCC2)C(F)(F)F (centres undefined)	-10%	0.5%	13%	11	-5	1.0
O=C(Cn1cncn1)c1ccccc1Br	15%	-0.9%	10%	1.2	7	1.3
Cc1cc(/C=C2/C(=O)NN(c3ccccc3)C2=O)c(C)n1-c1ccc(O)cc1	u	1.4%	-16%	-1.3	7	0.7
NC(=O)CSc1nnc(-c2ccccn2)n1Cc1ccco1	12%	0.9%	6%[15.4 µM]	5.5	9	-0.8
CCN(CC)S(=O)(=O)c1ccc(S(=O)(=O)Nc2cc3c(cc2C(C)=O)OCO3)cc1	-12%	-1.5%	1%	-3.2	-7	1.4
COc1ccc2c(=O)c3c(=O)n(Cc4ccccc4)c(C(C)C)nc3oc2c1	9%	x	-7%[15.4 µM]	x	26	1.1
CCN1C(=O)[C@H]2[C@@H](c3ccc(-c4ccccc4)cc3)N3CCC[C@@]3(C(=O)OC)[C@H]2C1=O	0%	-14%	-2%	x	7	0.1
O=c1c2c3c(sc2ncn1/N=C/c1ccc(Br)o1)CCCC3	0%	-2.7%	1%	2.5	15	1.4
CC1CCN(c2ccccc2NC(=S)NC(=O)C(C)(C)C)CC1	-7%	x	-2%	2.5	u	0.6
CCC(=O)NCC(c1cccs1)S(=O)(=O)c1ccc(C)cc1 (centres undefined)	10%	-0.3%	4%	-1.3	7	0.4
CC1(c2ccc([N+](=O)[O-])cc2)NC(=O)N(CC(=O)Nc2ccc(N3CCCCC3)cc2)C1=O (centres undefined)	-1%	-2.9%	-1%	x	-14	9.6
CCCCCCC(C)NC(=S)Nc1cc(S(=O)(=O)N(C)C)ccc1C (centres undefined)	-18%	-2.0%	0%[15.4 µM]	3.4	1	-0.5
O=C(c1ccccc1)n1c(=O)c(F)cn(COCCBr)c1=O	4%	-0.2%	-26%	-2.1	6	-0.7
O=C(Cn1cnc([N+](=O)[O-])n1)NCCO	5%	-5.2%	-22%	-0.7	-20	1.3
Cc1ccc(-c2nc3sccn3c2Nc2ccccc2C)cc1	x	-0.1%	x	x	4	1.5
COC(=O)c1ccc(NC(=S)NNC(=O)c2ccccc2)cc1	x	x	1%[15.4 µM]	6.2	-9	-0.8
CCN(C(=O)COC(=O)/C=C/c1ccc2c(c1)OCO2)c1c(N)n(Cc2ccccc2)c(=O)[nH]c1=O	5%	3.9%	2%	x	-2	-0.5
CN(C)C(=O)Cn1nc(-c2ccccc2)c2ccccc2c1=O	18%	4.1%	-46%[inhibitor]	-4.6	19	0.6
O=C(CSc1nnc(-c2ccncc2)n1C1CC1)c1cccs1	x	1.0%	-23%	x	-8	-0.3
O=C1ON=C(c2ccccc2[N+](=O)[O-])/C1=C/c1cccc([N+](=O)[O-])c1O	-4%	0.5%	-2%	x	4	-0.9
CCOc1ccc(NC(=O)NCC2CCN(c3ccc(OC)cc3)C2)cc1 (centres undefined)	8%	-14%	5%	3.0	21	-0.1
Cc1ccnn1-c1ccc(C(=O)OCC(=O)Nc2ccc(F)cc2)cc1	0%	-19%	3%[15.4 µM]	x	-1	0.1
CCOC(=O)C1=C(CSc2n[nH]c(N)n2)NC(=O)NC1C (centres undefined)	3%	0.1%	-16%	1.9	19	-0.3
Cc1ccc(NC(=O)c2ccc(F)cc2F)cc1	7%	-2.7%	24%	x	15	-0.9
CC(C)C[C@@H](CC#N)N1CCN(Cc2ccccc2)CCC1=O	3%	-2.8%&-1.3%	x	-7.4	2	-0.5&20
CCOC(=O)c1ccc(C(=O)NNC(=O)C2CC=CCC2)cc1 (centres undefined)	17%	x	2%[15.4 µM]	x	1	-0.3
Cc1cc(=O)n(C)c(=O)n1CCCCCOc1cccc([N+](=O)[O-])c1	u	0.4%	-5%	2.3	8	-0.1
Cc1ccc(C)c(NC(=O)Cn2c(=O)oc3cc(S(=O)(=O)NCc4ccccc4)ccc32)c1	x	1.5%	x	x	1	-0.2
CC1(C)CC(=O)C(C=NCCN2CCN(CC(=O)Nc3ccc(F)cc3)CC2)=C(O)C1	14%	x	1%[15.4 µM]	-0.4	3	-0.1
CC(C)C(N)c1csc(Nc2ccc(C(F)(F)F)cn2)n1 (centres undefined)	x	-12%	x	x	-3	-0.4
COc1ccc(-n2c(SCC(=O)NCC3CCCO3)nc3ccccc3c2=O)cc1Cl (centres undefined)	x	-0.8%	1%	x	16	-0.6
Cc1ccc(OCC(O)CN2CC3(C)CC2CC(C)(C)C3)cc1 (centres undefined)	-10%	2.2%	-10%	-0.1	14	0.8
O=C(NC(=O)c1ccccc1)Nc1ccccc1O	7%	-2.9%	u	6.9	x	x
COc1ccc(NC(=O)Nc2ccc(N3CCOCC3)c3nonc23)c(OC)c1	6%	0.6%	-7%	0.3	-4	2.3
Cc1ccc(N(C)C(=O)c2cnc(N3CCOCC3)c3ccccc23)cc1C	x	-4.4%	x	x	22	-0.6
Cc1ccc2cc3cc(C(=O)NCCCN4CCCC4)oc3nc2c1	6%	3.5%	-8%	0.7	36	0.7
O=C(CCc1ccccc1)NCCc1cccs1	14%	-0.2%	9%	-3.7	-12	-0.4
CC(=O)NS(=O)(=O)c1ccc(NC(=O)COc2ccc(C(=O)c3ccccc3)cc2)cc1	-9%	0.3%	-49%[inhibitor]	x	2	1.2
Cc1ccc2nc(N3CCC(C(=O)N4CCN(c5cccc(Cl)c5)CC4)CC3)[nH]c2c1	x	-1.9%	x	x	11	-0.1
CC1(c2ccc([N+](=O)[O-])cc2)NC(=O)NC1=O (centres undefined)	7%	-2.6%	6%	-3.3	31	0.1
COc1cccc(N2CCN(CC(=O)Nc3ccc(S(=O)(=O)N4CCCCCC4)cc3)CC2)c1	-3%	-2.2%	-3%	x	-9	1.6
COC(=O)C1=C(C)NC(=O)/C1=C\N(C)C	12%	x	11%[15.4 µM]	u	0	0.6
Cc1ccc(Cl)cc1N1CCN(Cc2nnnn2Cc2ccco2)CC1	-10%	0.0%	-7%[15.4 µM]	5.0	-1	2.5
Cc1ccc(OCC(=O)N/N=C\c2ccc(O)cc2)c([N+](=O)[O-])c1	-1%	x	23%[15.4 µM]	0.0	0	-0.1
COc1cc(OC)c(OC)cc1/C=C/c1nc2ccccc2c(=O)n1-c1ccc(Br)c(C)c1	x	-1.3%	x	x	15	2.9
O=C(c1ccc2c(=O)n(Cc3ccccc3)c(=S)[nH]c2c1)N1CCOCC1	u	x	24%	4.7	19	1.7
NS(=O)(=O)c1ccc(CCNC(=O)CCNS(=O)(=O)c2ccccc2C(F)(F)F)cc1	18%	0.8%	-65%[inhibitor]	x	-6	1.0
COc1ccc(OCCSc2nc3ccccc3c(=O)[nH]2)cc1	13%	-7.9%	u	3.4	7	1.1

Later entries:
SMILES	gsp antagonist	ClpP mod	gsp agonist	Menin-MLL FL inh	TRPML1 inh	TRPML1 agonist
Cn1c(=O)c2c(nc(SCC(=O)Nc3ccccc3)n2Cc2ccccc2F)n(C)c1=O	x	-4.6%	x	x	24	2.6
CCOC(=O)CN(C(=O)COc1nc(C)cc(C)c1C#N)c1cccc(Cl)c1	-22%	x	5%[15.4 µM]	4.3	32	2.9
COc1ccc(-c2noc(CSc3nnc(-c4ccncc4)n3-c3ccc(F)cc3)n2)cc1OC	0%	-0.5%	-4%	-0.3	25	1.6
Cc1cc(SCC(=O)Nc2ccccc2)nc(C)n1	4%[15.4 µM]	0.9%	-4%	-4.0	-7	0.8
O=C(Nc1cccc(NC(=O)C2CCCO2)c1)C1CCCO1 (centres undefined)	13%	-7.0%	u	x	-6	1.0
CC(=O)N1CCN(c2ccc(NC(=O)c3ccccc3)cc2)CC1	-23%	-0.3%	4%[15.4 µM]	0.4	7	-0.3
CCOC(=O)C[C@H]1c2ccccc2S(=O)(=O)N1C1CC1	7%	2.7%&0.8%	31%	x	7	-0.9&-0.3
O=[N+]([O-])c1ccc(O)c(/C=N/Nc2ncnc3c2cnn3-c2ccccc2)c1	-34%	-2.6%	18%	-0.5	12	3.3
CCc1cc2c(-c3ccccc3)cc(=O)oc2c2c1OCN(Cc1ccc(C)cc1)C2	x	u	x	x	-22	1.4
CC(C)CCNc1nc2c(c(=O)n(Cc3cccc(F)c3)c(=O)n2C)n1C	u	1.9%	-39%[inhibitor]	2.6	12	-0.7
Cc1ccc(N/N=C2\CCS(=O)(=O)c3sccc32)cc1	-1%	0.8%	12%	0.9	9	-0.5

High-throughput results deposited in PubChem by National Center for Advancing Translational Sciences (NCATS).
